VDR inhibitor – inhibitors of human vitamin D receptor; hit rate 0.93% among 400,000; Potency, µM, without a hit: max response, negative = inhibition, most hits filed as inhibitors; VDR-SRC2-3 peptide fluorescence polarization, 2 h; AID 504847; P11473; active means well fitted inhibition curve with a large enough effect; inconclusive means small, poorly fitted or top-dose-only effect, or another doubt; inactive means no such curve, though single readings can be large or run the other way; further: series mostly up to about 120 µM
Target sequence (P11473 whole entry, looked up): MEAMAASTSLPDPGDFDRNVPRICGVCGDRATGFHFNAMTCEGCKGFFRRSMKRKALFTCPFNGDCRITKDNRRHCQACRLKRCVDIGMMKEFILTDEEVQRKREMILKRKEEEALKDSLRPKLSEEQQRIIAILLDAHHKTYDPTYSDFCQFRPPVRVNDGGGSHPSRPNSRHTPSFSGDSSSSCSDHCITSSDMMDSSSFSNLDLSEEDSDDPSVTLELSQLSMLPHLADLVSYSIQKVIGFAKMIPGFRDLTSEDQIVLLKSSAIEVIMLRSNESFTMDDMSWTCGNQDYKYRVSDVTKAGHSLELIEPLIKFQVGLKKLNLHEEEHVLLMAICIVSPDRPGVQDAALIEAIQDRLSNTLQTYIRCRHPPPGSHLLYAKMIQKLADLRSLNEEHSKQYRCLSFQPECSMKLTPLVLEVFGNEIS
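The screen uses fluorescence polarization to detect compounds that interfere with recruitment of the SRC2-3 coactivator peptide to VDR; plates are read after 2 h at room temperature.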
Active calls of the source: *; & = joins results of further samples. On the % scale 0 is the no-effect control and ±100 the full control effect; potency means the concentration at half of the fitted maximal effect.

COc1ccccc1N1CCN(C(=O)COc2ccc(Cl)cc2Br)CC1 was read as VDR inhibitor -13%.
Screening COc1ccc(N(C(=O)c2ccco2)C(C(=O)NC2CCCC2)c2cc(OC)c(OC)c(OC)c2)cc1 (stereo not drawn) returned VDR inhibitor 4%.
CCn1c(=O)c2ccccc2n2c(SCC(=O)N3CCc4ccccc4C3)nnc12 was read as VDR inhibitor 15%.
`Nn1c(SCC(=O)Nc2cccc(Br)c2)nnc1C1CC1` gave VDR inhibitor -14%.
Screening Cc1ccc(C)c(NC(=O)CCN2C(=O)[C@@H]3Cc4ccccc4CN3C2=O)c1 returned VDR inhibitor 1%.
For O=C1CC(N2CCN(CCc3ccccn3)CC2)C(=O)N1c1ccc(Cl)cc1 (stereo not drawn) the results were VDR inhibitor -6%.
Screening CCCCC1CCC(C(=O)N(CCCC)c2c(N)n(CCCC)c(=O)[nH]c2=O)CC1 (stereo not drawn) returned VDR inhibitor 6%.
For COc1ccc(C(CC(=O)Nc2ccc(F)c(Cl)c2)N2Cc3ccccc3C2=O)cc1OC (stereo not drawn) the results were VDR inhibitor 4%.
Screening COC(=O)c1cc(OC)c(OC)cc1NC(=O)c1cc(C(C)(C)C)oc1C returned VDR inhibitor 4%.
For COc1ccc(-n2nc3c(c2NC(=O)c2ccc(S(=O)(=O)N4CCOCC4)cc2)CS(=O)(=O)C3)cc1 the results were VDR inhibitor 9%.
`COc1cc(Cl)c(NC(=O)C(NS(=O)(=O)c2cccs2)C(C)C)c(OC)c1` (stereo not drawn) gave VDR inhibitor 1%.
N#Cc1nc(-c2ccccc2Cl)oc1NCc1ccco1 was read as VDR inhibitor 11%.
Screening Cc1cc(N2CCN(C)CC2)nc(N2CCOCC2)n1 returned VDR inhibitor -13%.
Screening O=C(Nc1ccc2c(c1)CCC2)c1c(F)cccc1Cl returned VDR inhibitor -6%.
Screening COc1cc(Br)c(C2CC(=O)Nc3cc(OC)c(OC)cc32)cc1OC (stereo not drawn) returned VDR inhibitor -11%.
`Cc1cc(C(F)(F)F)c(C#N)c(SCC(=O)NC2CC2)n1` gave VDR inhibitor -18%.
Screening COC(=O)c1ccc(CC(=O)c2c(C)cc(O)cc2O)o1 returned VDR inhibitor -14%.
Screening CCOc1ccc(C(=O)Nc2ccc(-c3nc4cc(C)ccc4o3)cc2)cc1 returned VDR inhibitor 10%.
`CN(C)C(=O)N1CCCC(C(=O)NCc2cccs2)C1` (stereo not drawn) gave VDR inhibitor 3%.
COc1ccc(-c2ccc(C(=O)C3CC3)cc2)cc1 was read as VDR inhibitor 2%.
For N#CC(c1cccc(Cl)c1)c1ccc2c(C(F)(F)F)cc(C(F)(F)F)nc2n1 (stereo not drawn) the results were VDR inhibitor -14%.
Screening COc1ccc(CC(NC(C)=O)C(=O)NC2CCN(C(=O)c3cnccn3)CC2)cc1 (stereo not drawn) returned VDR inhibitor 4%.
CC(C)OC(=O)CCCCCN1C(=O)CSC1=S was read as VDR inhibitor 11%.
Screening O=C(NCCCc1ccccc1)c1cnc2n(c1=O)CCS2 returned VDR inhibitor 8%.
`COc1cc(-c2ccno2)ccc1S(=O)(=O)N1CCN(c2ccc(F)cc2)CC1` gave VDR inhibitor 13%.
`COc1cc(NC(=O)c2ccc(C)cc2)ccc1NC(=O)c1cc2ccccc2o1` gave VDR inhibitor -17%&0%.
Screening Cc1cnc(N)c2c(=O)oc3ccccc3c12 returned VDR inhibitor 17%.
For CN(CC(=O)Nc1c(Cl)cccc1Cl)C(=O)c1cccc(-n2cccc2)c1 the results were VDR inhibitor -3%.
Screening O=C1CC(=O)Nc2cc(S(=O)(=O)N3CCOc4ccc(Cl)cc43)ccc2N1 returned VDR inhibitor 5%&9%.
O=C(Cn1c(=O)n(Cc2ccco2)c(=O)c2c3c(sc21)CCCCC3)Nc1ccccc1 was read as VDR inhibitor -3%.

The list goes on; the last 3 above are carried over.
For CN(CC(=O)Nc1c(Cl)cccc1Cl)C(=O)c1cccc(-n2cccc2)c1 the results were VDR inhibitor -3%.
Screening O=C1CC(=O)Nc2cc(S(=O)(=O)N3CCOc4ccc(Cl)cc43)ccc2N1 returned VDR inhibitor 5%&9%.
O=C(Cn1c(=O)n(Cc2ccco2)c(=O)c2c3c(sc21)CCCCC3)Nc1ccccc1 was read as VDR inhibitor -3%.
`O=C(NCc1ccc(Cl)cc1)c1cccnc1` gave VDR inhibitor 3%.
`CC(C)Cn1c(N)c(C(=O)CSc2nc3ncc(Cl)cc3[nH]2)c(=O)n(C)c1=O` gave VDR inhibitor 3%.
Screening N#CC12COC3(CCCCC3C1(C#N)C#N)OC2=N (stereo not drawn) returned VDR inhibitor -29%.
`CCC(=O)Nc1cc(-c2nn(C)c(=O)c3ccccc23)ccc1OC` gave VDR inhibitor 17%.
COc1ccc(C2=NN(c3ccc(C(=O)O)cc3)C(c3ccc(OC)c(OC)c3)C2)cc1 (stereo not drawn) was read as VDR inhibitor -18%.
For Cc1ccnc(NC(=O)c2ccc(S(=O)(=O)N3CCCC3)cc2)c1 the results were VDR inhibitor -9%.
Screening Cc1ccc(Nc2nc(N)c(C#N)c(CC#N)c2C#N)cc1 returned VDR inhibitor -7%.
N/C(=N\OC(=O)/C=C/c1ccccc1)c1ccccc1 was read as VDR inhibitor 12%.
COc1ccc(N2CCN(C(=O)CCCCn3c(=O)[nH]c4ccsc4c3=O)CC2)cc1 was read as VDR inhibitor 11%&-6%.
For Cc1cccc(N2CCN(c3nc4ccccc4n4cnnc34)CC2)c1C the results were VDR inhibitor -10%.
`Cc1nnsc1C(=O)Nc1ccc(S(=O)(=O)N2CCCC(C)C2)cc1` (stereo not drawn) gave VDR inhibitor -5%.
CC(=O)NCCc1ccc(-c2csc(NC(=O)C3CC(=O)N(C4CCCC4)C3)n2)cc1 (stereo not drawn) was read as VDR inhibitor -6%.
For O=C(O)c1cccc(NC(=S)NC(=O)c2ccc(-c3ccccc3)cc2)c1 the results were VDR inhibitor 8%.
For CN(C(=O)c1ccc(NC(=O)Cc2ccc(NC(=O)C3CCN(C(=O)CCc4ccccc4)CC3)cc2)cc1)C1CCCC1 the results were VDR inhibitor -9%.
`CN(C)CCCNC(=S)NCC(c1ccc(Cl)cc1Cl)c1c[nH]c2ccccc12` (stereo not drawn) gave VDR inhibitor 15%.
Screening O=C(Nc1nnc(C2CC2)s1)c1cccs1 returned VDR inhibitor -4%.
`CC(=O)CSc1nnc2cc(C)c3ccccc3n12` gave VDR inhibitor -8%.
COc1ccc(OC)c(CN2CCN(Cc3cc(OC)c(OC)c(OC)c3)CC2)c1 was read as VDR inhibitor 10%.
`CC(/C=C/c1ccccc1)=N\Nc1nc(C)cc(C)n1` gave VDR inhibitor -8%.
CCn1cc2nc(SCC(=O)Nc3ccccc3F)n(Cc3ccc(C)cc3)c(=O)c2n1 was read as VDR inhibitor -9%.

Quoted from the entries so far, four compounds:
`CC(=O)CSc1nnc2cc(C)c3ccccc3n12` gave VDR inhibitor -8%.
COc1ccc(OC)c(CN2CCN(Cc3cc(OC)c(OC)c(OC)c3)CC2)c1 was read as VDR inhibitor 10%.
`CC(/C=C/c1ccccc1)=N\Nc1nc(C)cc(C)n1` gave VDR inhibitor -8%.
CCn1cc2nc(SCC(=O)Nc3ccccc3F)n(Cc3ccc(C)cc3)c(=O)c2n1 was read as VDR inhibitor -9%.

New compounds follow:
Cc1ccccc1-n1c(SCC(=O)N2CCCC2)nnc1-c1ccccn1 was read as VDR inhibitor 12%.
`CC(OC(=O)c1ccc([N+](=O)[O-])o1)C(=O)NC1CCCCC1C` (stereo not drawn) gave VDR inhibitor 7%.
For CCOC(=O)Cc1csc(SC(C)C(=O)NCC(=O)Nc2ccc(F)c(F)c2F)n1 (stereo not drawn) the results were VDR inhibitor 9%.
`CCOC(=O)Cn1cnc2onc(-c3ccc(F)cc3)c2c1=O` gave VDR inhibitor -9%.
`Cn1c(N)c(C(=O)COC(=O)c2ccccc2C(=O)c2ccc(Cl)c([N+](=O)[O-])c2)c(=O)n(C)c1=O` gave VDR inhibitor 0%.
CCC(C)C(=O)OC1CC(O)C=C2C=CC(C)C(CCC(O)CC(O)CC(=O)O)C21 (stereo not drawn) was read as VDR inhibitor -14%.
`CSc1cccc(CNC(=O)CC2C(=O)NCCN2CC(C)(C)C)c1` (stereo not drawn) gave VDR inhibitor 19%.
For CCN(CC)CCNC(=O)c1ccc(NC(=O)c2cccc(S(=O)(=O)N3CCc4ccccc43)c2)cc1 the results were VDR inhibitor -3%.
Nc1cc([N+](=O)[O-])ccc1Nc1ccc(O)cc1 was read as VDR inhibitor -27%.
For Cc1ccc(S(=O)(=O)N(C)C)cc1NC(=S)N1CCc2ccccc21 the results were VDR inhibitor 1%.
For COC(=O)[C@H]1C[C@@H]1[C@H](NS(=O)(=O)c1ccc2ccccc2c1)c1ccccc1 the results were VDR inhibitor -7%.
`CC(=O)c1ccc(N2CCN(S(=O)(=O)c3cccc(S(=O)(=O)N4CCOCC4)c3)CC2)cc1` gave VDR inhibitor -2%.
`CCOC(=O)c1c(NC(=O)/C=C/c2ccc(OCC)cc2)sc2c1CCCC2` gave VDR inhibitor -5%.
Screening COC(=O)C(CSCc1ccccc1)NC(=O)CSc1nc(C)cc(=O)[nH]1 (stereo not drawn) returned VDR inhibitor 15%.
COc1ccc(Nc2nc3ccccc3nc2NS(=O)(=O)c2ccc(Cl)cc2)cc1OC was read as VDR inhibitor -8%.
CCOc1ccc(C(=O)/C=C/c2ccc(OC)c(OC)c2)cc1 was read as VDR inhibitor -25%.
Nc1ncnc(N2CCc3ccccc32)c1[N+](=O)[O-] was read as VDR inhibitor -7%.
`N#Cc1c(Sc2ncc(C(F)(F)F)cc2Cl)nsc1C/C=N\OCc1ccccc1Br` gave VDR inhibitor -30%.
For CCOc1ccc(NC(=O)CCc2c(C)nc3cc(-c4ccc(Cl)cc4)nn3c2C)cc1 the results were VDR inhibitor -3%.
`Cn1ncc([N+](=O)[O-])c1C(=O)N/N=C/c1cccc([N+](=O)[O-])c1` gave VDR inhibitor 4%.

Part of the list above in order of molecular weight, ascending.
CCOc1ccc(C(=O)/C=C/c2ccc(OC)c(OC)c2)cc1 was read as VDR inhibitor -25%.
For COC(=O)[C@H]1C[C@@H]1[C@H](NS(=O)(=O)c1ccc2ccccc2c1)c1ccccc1 the results were VDR inhibitor -7%.
Screening COC(=O)C(CSCc1ccccc1)NC(=O)CSc1nc(C)cc(=O)[nH]1 (stereo not drawn) returned VDR inhibitor 15%.
For CCOc1ccc(NC(=O)CCc2c(C)nc3cc(-c4ccc(Cl)cc4)nn3c2C)cc1 the results were VDR inhibitor -3%.

(further entries)
`COCCn1c(=O)c(CCc2ccccc2)nc2cnc(Nc3ccccc3)nc21` gave VDR inhibitor 1%.
For O=[N+]([O-])c1cccc(N=Nc2ccc(O)cc2O)c1 the results were VDR inhibitor -2%.
For O=C(NCc1ccccc1)c1ccccc1 the results were VDR inhibitor -5%.
Screening CCCCOc1ccc(N2C(N)=NC(N)=NC23CCCCC3)cc1 returned VDR inhibitor 8%.
`O=C(Cc1c(Sc2ccccc2)c2ccccc2n1Cc1ccccc1)NCCO` gave VDR inhibitor -3%.
For Cc1nn(-c2ccc(F)cc2)c(Cl)c1/C=C(/CC(=O)O)c1nc2ccccc2s1 the results were VDR inhibitor 5%.
For CCN1C(=O)c2ccccc2S(=O)c2ccc(C(=O)NCc3ccc(F)cc3)cc21 (stereo not drawn) the results were VDR inhibitor -17%.
For CCOc1ccc(N2C(=O)C(Cl)=C(N3CCOCC3)C2=O)cc1 the results were VDR inhibitor 28µM*.
`CCOC(=O)C(NC(=O)c1ccccc1)(N1CCOCC1)C(F)(F)F` (stereo not drawn) gave VDR inhibitor -7%.
For O=C(CCN1C(=O)/C(=C\C=C\c2ccccc2)SC1=S)Nc1ccc(C(=O)O)cc1 the results were VDR inhibitor inconclusive.
`O=C(NC(=S)Nc1nc(-c2cccc([N+](=O)[O-])c2)cs1)c1cc(Cl)ccc1Cl` gave VDR inhibitor -14%.
`COc1cccc(C(=O)C2CCCN(C(=O)c3ccccn3)C2)c1` (stereo not drawn) gave VDR inhibitor -5%.
`COC(=O)c1cc2c(cc1N)OCCO2` gave VDR inhibitor -15%.
CCOC(=O)COc1ccsc1C(=O)OC was read as VDR inhibitor -3%.
For CC(=O)c1cccc(NC(=O)Cn2cnc(S(=O)(=O)N3CCCC3)c2)c1 the results were VDR inhibitor 3%.
`O=C(O)CC(C(=O)OC1CCCCC1)N1CCOCC1` (stereo not drawn) gave VDR inhibitor 6%.
Screening CN1C(=O)C(CC(=O)Nc2ccc(F)cc2)N(Cc2ccco2)C1=S (stereo not drawn) returned VDR inhibitor 9%.
For CC(C)(C)n1nnnc1C(c1ccc(C(F)(F)F)cc1)N(Cc1ccccc1)Cc1ccco1 (stereo not drawn) the results were VDR inhibitor 18%.
Screening C=CCc1cc(/C=C2/NC(=O)N(CC(=O)OC)C2=O)cc(OC)c1O returned VDR inhibitor 14%.
Screening Cc1ccc(Nc2nc(N)nc(CN3CCN(C(=O)c4ccco4)CC3)n2)cc1Cl returned VDR inhibitor -15%.
`COc1ccc(CCNC(=O)CCCn2c(=O)c3ccccc3n(CC(=O)Nc3ccccc3C)c2=O)cc1OC` gave VDR inhibitor 10%.
COc1cc(C(=O)N2CCN(C(=O)c3ccccc3)CC2)cc(OC)c1OC was read as VDR inhibitor -5%.
For COc1ccc(OC)c(CCNC(=O)C(C)n2nc(C)c3c(C)n(-c4ccccc4)nc3c2=O)c1 (stereo not drawn) the results were VDR inhibitor -26%.
`Cc1ccnc(NC(=O)c2cccc(S(=O)(=O)N3CCN(c4ccccc4)CC3)c2)c1` gave VDR inhibitor 10%.
Screening COc1cccc(NC(=O)CN(C)C(=O)c2cc(-c3ccccc3)nc3ccc(C)cc23)c1 returned VDR inhibitor -4%.

Only part of the results is shown, so the mix of outcomes need not match the whole.
